PABP polyA inh: blocks human PABP binding to poly(A) RNA | AID 2014 | inhibition, % at 35 µM | hit rate 1% among 290,000 | P11940 | fluorescence polarization;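 active = 50% or more with normal probe brightness, or confirmed in later tests; inconclusive = above 50% with abnormal brightness, or retests that disagree; inactive = below 50% or failed in later tests; about a fifth of its hits are not listed in these tables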;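 also: calls also rest on retests at 20 µM and on dose response follow-up; controls were probe without protein and protein plus probe with vehicle; some compounds called inactive have numbers as strong as hits; many hits fall short of the cut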
UUG fidelity: modulators of start codon recognition fidelity in yeast; S. cerevisiae UUG-firefly luciferase reporter, luminescence/redox ratio; activity score, % at 18.7 µM; hit rate 0.13% among 350,000;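 active = replicate mean at a twofold rise or more, about +100% in these data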;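 also: firefly luciferase made from a UUG start codon reports start codon fidelity; reporter light over untreated wells divided by growth signal over untreated wells; some hits fall short of that in this replicate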
eIF4H inh: inhibitors of RNA binding by human eIF4H. Q15056. eIF4H fluorescence polarization binding assay. inhibition, % at 35 µM. hit rate 0.94% among 290,000;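 active = 50% or more with normal probe brightness, or confirmed in later tests; inconclusive = above 50% with abnormal brightness, or retests that disagree; inactive = below 50% or failed in later tests; about a fifth of its hits are not listed in these tables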;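 also: calls also rest on retests at 20 µM and on dose response follow-up; 0% = protein and probe with vehicle and 100% = probe without protein; strong numbers were not always called active; many hits fall short of the cut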
Rce1 inh: blocks yeast Ras-converting enzyme; Q03530; yeast membranes, quenched prenylated peptide cleavage fluorescence; calls only; hit rate 0.27% among 290,000;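 active = fall in fluorescence gain of 50% or more versus controls, with final raw signal at or below 3038400; inconclusive = same 50% fall but final raw signal above 3038400; inactive = fall in fluorescence gain under 50%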;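 also: plate controls were neutral control wells for no effect and wells lacking membranes for full effect; tested at 10 µM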
Target sequence (Q03530 whole entry, looked up): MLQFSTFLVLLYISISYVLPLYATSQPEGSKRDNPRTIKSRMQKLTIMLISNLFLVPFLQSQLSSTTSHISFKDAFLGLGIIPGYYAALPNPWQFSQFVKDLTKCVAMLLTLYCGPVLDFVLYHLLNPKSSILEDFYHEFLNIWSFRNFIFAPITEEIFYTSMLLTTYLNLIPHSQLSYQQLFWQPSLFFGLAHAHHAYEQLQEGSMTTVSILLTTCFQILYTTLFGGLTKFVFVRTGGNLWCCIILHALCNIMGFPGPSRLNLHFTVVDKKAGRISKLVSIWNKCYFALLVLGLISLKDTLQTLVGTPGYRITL
CSC inhib: blocks cancer stem cells; AID 2717; inhibition, % at 7.5 µM; hit rate 1.1% among 300,000; cancer stem cell-like cells viability, luminescence;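 active = mean at 75% or more and at least half the replicates too; inconclusive = mean and replicates disagree; tested in HMLE shEcad cells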;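 also: 0% = median of negative and 100% = median of positive control wells; the first replicate is given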
MT1-MMP act inh: MT1-MMP (human) activation inhibition; AID 651647; GFP/RFP ratio change, % at 20 µM; HT1080 RFP-PRO-GFP cells, GFP/RFP ratio fluorescence, overnight; percent of plate control window, DMSO zero; hit rate 0.061% among 360,000;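 active = GFP/RFP ratio change of at least 30% with cell ATP level not reduced by more than half and red fluorescence within 50% of control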; also: strong numbers were not always called active
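Test system: HT1080 RFP-PRO-GFP cells; Benchmarks: DMSO and RFP-L50D-GFP cell wells; Timing: cells overnight before dosing, compound overnight, 37 °C, 5% CO2; Compound: one 20 µM compound dose with 1% DMSO; Read-out: GFP/RFP fluorescence ratio.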
Env fusion inh: blocks HIV Env-driven cell-cell fusion. HeLa-JRFL Env/CEM21 cell fusion, luciferase. inhibition, % at 12.3 µM. hit rate 1.1% among 360,000. AID 651610;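 active = mean replicate inhibition score of at least 50 and every replicate individually at or above 50; inconclusive = only one of the two criteria met; inactive = mean below 50 and not all replicates reaching 50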;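 also: 0% = plate neutral controls and 100% = maraviroc near 300 nM; one replicate is shown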
eIF4H inh retest: second read-out of eIF4H inh, no call of its own (marks repeat the call); inhibition, %; compound at 20 µM; confirmation average;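 mean of two retest wells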
PABP polyA inh retest: also measured in PABP polyA inh; calls as there; inhibition, %; compound at 20 µM; confirmation repeats;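 mean of two retest wells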
MT1-MMP act inh RFP: further read-out of MT1-MMP act inh, marked with its call; RFP signal change, %; measured here: RFP expression control read;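 0 = vehicle wells; hits needed this value within 50% of zero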
Starred values were filed as active, the others as inactive; i = inactive; u = inconclusive; x = not tested or not shown; [ ] = remark or other dose. The list is partial; rates above refer to the full screens.

SMILES	PABP polyA inh	UUG fidelity	eIF4H inh	Rce1 inh	CSC inhib	MT1-MMP act inh	MT1-MMP act inh RFP	Env fusion inh	others
COc1cccc(OCCNC(=O)c2ccccc2Sc2ccccc2C#N)c1	0	x	2	i	4	-10	-9	x
CCOC(=O)C1CCCN(C(=O)c2ccc3c(c2)OCO3)C1 (stereo not drawn)	2	-27	14	i	8	-1	2	-26
CC(=O)C(Cc1cccc(F)c1)(Cc1cccc(F)c1)C(C)=O	1	x	-4	i	-6	-14	-7	13
CC1CC(C)CN(CCOc2ccccc2-c2ccccc2)C1 (stereo not drawn)	-3	x	18	i	x	1	2	-7
CC(/C=N/N1CCN(Cc2ccccc2)CC1)=C\c1ccccc1	2	x	-1	i	-1	-1	-3	5
Cc1cc(C)n(C(=O)CNC(=O)C(c2ccccc2)c2ccccc2)n1	-3	-5	2	i	-9	0	3	x
Cc1cccc(Nc2nc(C)cc(C)n2)c1	4	-20	-5	i	7	-3	4	-24
COC(=O)CSc1nc2ccccc2nc1SCC(=O)OC	16	-13	-1	i	7	-3	-1	-2
CNCC(=O)N(CC(C)C)c1c(N)n(CC(C)C)c(=O)[nH]c1=O	-6	x	8	i	9	-5	-2	-29
CCN1CCN(C(=O)C2c3cc(OC)c(OC)cc3C(=O)N3CCc4ccccc4C23)CC1 (stereo not drawn)	14	32	0	i	-2	3	3	-44
Cc1cccc(OCC(=O)NCC(=O)N/N=C/c2cc(Br)ccc2OCc2ccccc2)c1	-4	-5	-4	i	x	-3	2	5
CCn1c(C)c(C(=O)O)c2cc(OC)c3ccccc3c21	10	2	-1	i	-3	4	4	7
Cc1cc(-c2csc(N)n2)c(C)n1CCC(C)C	u	-6	u	i	-2	-8	6	x
COCCNC(=O)Cn1cc(/C=C(\C#N)C(=O)NC2CC2)c2ccccc21	2	x	-12	i	-9	3	5	4
COC(=O)c1cc(Br)c(=O)n(-c2ccccc2OC)c1	-4	-3	7	i	x	0	2	x
CC(=O)Nc1cc(-c2ccc(N3CCN(C)CC3)cc2)cn2c(-c3ccc(S(C)(=O)=O)cc3)cnc12	x	-12	x	x	x	-1	0	-9
COC(C(=O)Nc1ccc(S(=O)(=O)Nc2ccc(F)cc2)cc1)c1ccccc1 (stereo not drawn)	4	x	6	i	-11	6	-2	-18
Cc1cc(C)cc(C(=O)NCc2ccc3c(c2)OCO3)c1	-11	-2	-2	i	0	-1	-3	10
O=C(O)/C=C/C(=O)Nc1nc(-c2ccc3ccccc3c2)cs1	x	x	x	i	-11	-3	0	4
Cc1ccc(NC(=O)c2cnccn2)c(C)c1	1	-10	-5	i	-10	2	2	-5
NNC(=O)/C(=N/Nc1ccccc1)S(=O)(=O)c1ccc(Cl)cc1	-6	x	6	i	32	1	-6	25
COc1ccc(N2Cc3ccccc3C2=NC(=O)c2ccc(C)cc2)cc1OC	8	-5	-1	i	-3	-2	4	-5
Cc1c(/C=N/NC(=O)c2cc(C(C)(C)C)[nH]n2)c2ccccc2n1C	9	-1	3	i	18	1	1	2
CN1C(=S)N2CCCN2C1c1ccccc1 (stereo not drawn)	-10	-10	-5	i	-11	1	8	11
O=C(Nc1cccc(-c2nc3ccccc3s2)c1)c1cc(-n2cnnc2)ccc1Cl	-6	-4	-5	i	29	1	-8	x
Nn1c(SCC(=O)N2CCOCC2)nnc1-c1ccccc1Cl	-3	-14	-9	i	7	-2	2	-37
CCc1ccc(NC(=O)[C@H](C)NC(=O)C2CCN(C(=O)[C@@H](N)Cc3ccccc3)CC2)cc1	6	-18	-5	i	-2	-4	-2	x
Cc1ccc(Sc2ncccc2O)cc1	x	x	x	i	2	0	3	-1
CCCOc1ccc(-c2nc(SCc3ccccc3)[nH]c(=O)c2C#N)cc1OC	12	-15	5	i	55	2	-7	15
Cc1ccc2ncnc(NCCCN3CCOCC3)c2c1	-3	-23	-13	i	-10	0	-1	x
Cc1cccc2cc(CN(Cc3ccco3)S(=O)(=O)c3ccc4c(c3)OCCO4)c(=O)[nH]c12	3	-13	-11	i	x	1	-7	5
Cc1ccc(C(=O)Nn2c(C)nc3ccccc3c2=O)cc1C	6	-5	-2	i	-15	1	5	1
COc1ccc(-n2nc(C#N)c(Cl)cc2=O)cc1	-8	x	0	x	x	3	-1	-210
CC1CN(C(=O)c2ccc(NS(=O)(=O)c3ccc(C(C)(C)C)cc3)cc2)CC(C)O1 (stereo not drawn)	-5	7	-2	i	x	-1	-7	15
Cc1cc(C)n(-c2ccc(C(=O)Nc3nc4ccccc4s3)cc2)n1	4	-11	-2	i	-3	3	-4	x
C/C(=N\Nc1cccc([N+](=O)[O-])c1)c1cc(F)ccc1O	-6	x	-3	i	36	4	-4	-56
COc1ccc(NC2CCCN(C(=O)c3cccc(C(F)(F)F)c3)C2)cc1OC (stereo not drawn)	4	-3	15	i	3	1	0	-15
COC(=O)C1CC(=O)N(c2ccc(C)cc2)C1 (stereo not drawn)	-2	x	-10	i	-9	4	3	17
Cc1ccc(C(=O)O/N=C/c2c(Cl)n(C)c3ccccc23)cc1	3	1	-9	i	-1	6	4	x
CC(C)CNCC1OCc2ccccc2CO1	4	-25	7	i	-8	0	1	-3

3 entries out of the list, ordered by number of heavy atoms, ascending:
SMILES	PABP polyA inh	UUG fidelity	eIF4H inh	Rce1 inh	CSC inhib	MT1-MMP act inh	MT1-MMP act inh RFP	Env fusion inh	others
Cc1ccc(NC(=O)c2cnccn2)c(C)c1	1	-10	-5	i	-10	2	2	-5
Cc1cc(-c2csc(N)n2)c(C)n1CCC(C)C	u	-6	u	i	-2	-8	6	x
CC(=O)C(Cc1cccc(F)c1)(Cc1cccc(F)c1)C(C)=O	1	x	-4	i	-6	-14	-7	13

New compounds follow:
SMILES	PABP polyA inh	UUG fidelity	eIF4H inh	Rce1 inh	CSC inhib	MT1-MMP act inh	MT1-MMP act inh RFP	Env fusion inh	others
Cc1nn(-c2cc(N3CCOCC3)ccc2[N+](=O)[O-])c(=O)c2ccccc12	-5	-3	-1	x	-5	-5	4	-6
CCCCN1C(=O)C(=Nc2cccc3cnccc23)c2ccccc21	4	x	3	i	11	-3	3	19
COC(=O)c1ccc(Cn2nc(C(F)(F)F)cc2C)cc1	-8	-18	-3	i	-9	0	-2	28
CC(C)NC(=O)Nc1ccc2c(c1)C(=O)N([C@H](C)CO)C[C@H](C)[C@@H](CN(C)S(=O)(=O)c1cccs1)O2	x	10	x	x	8	-5	0	-11[16.7 µM]
CC1CCCN(C(C(=O)Nc2ccc(C(C)C)cc2)c2ccc3c(c2)OCO3)C1 (stereo not drawn)	-10	-5	-9	i	44	-7	-7	10
COc1ccc(-c2cc(C(F)F)nc(-n3nc(C)cc3C)n2)cc1	2	-20	8	i	-2	0	-1	-92
CCOC(=O)c1cnn2c(C(F)(F)F)cc(-c3ccccc3)nc12	11	0	-6	i	-12	13	-5	x
O=C(COC(=O)c1ccc(S(=O)(=O)N2CCc3ccccc3C2)cc1)NC(=O)NCc1ccco1	3	-8	6	i	1	-1	1	-70
CCCCOc1cccc(C(=O)N(Cc2ccco2)C2CCS(=O)(=O)C2)c1 (stereo not drawn)	2	1	9	i	-14	-1	-9	20
CCN(CC)S(=O)(=O)c1ccc(OC)c(-n2cnnn2)c1	-3	-7	3	i	6	-9	0	-4
O=C(NCc1cccc(CNC(=O)c2ccco2)c1)c1ccco1	-6	-16	-4	i	-5	0	1	x
C=CCNC(=S)NS(=O)(=O)c1cccs1	-15	4	-4	i	16	0	5	13
CN(CC1COc2ccccc2O1)C(=S)NC1CCCCC1 (stereo not drawn)	11	-27	1	i	18	5	0	-3
CC(=O)Nc1ccc(Nc2ccc([N+](=O)[O-])cn2)cc1	5	-6	-5	i	-18	5	2	-12
COc1cccc(-c2nc(CS(=O)(=O)CC(=O)Nc3cccc(C(C)=O)c3)c(C)o2)c1	-8	x	-8	i	-9	-1	3	0
CCCN1CCN(CCCNC(=O)c2cc3c(=O)n(C)c4ccccc4c3n2C)CC1	9	-4	-6	i	16	7	5	-9
CCC1(C)Cc2ccccc2-c2nc3n(c(=O)c21)CCCCC3 (stereo not drawn)	-1	20	3	i	x	13	-3	-12
O=C(N/N=C/c1ccco1)c1cccc(N2CCCC2=O)c1	-2	-11	91*	i	-14	1	1	x	eIF4H inh retest=94*;PABP polyA inh retest=24
CN1CCN(C(=O)c2ccc(Cl)cc2)CC1	16	-14	28	i	x	3	-2	-1
CCOc1cccc(C(=O)NC(=S)Nc2cccc(NC(=O)c3ccccc3Cl)c2)c1	-4	x	-20	i	13	8	-3	5

Reprinted from the part before: 7 compounds, followed by the next part.
SMILES	PABP polyA inh	UUG fidelity	eIF4H inh	Rce1 inh	CSC inhib	MT1-MMP act inh	MT1-MMP act inh RFP	Env fusion inh	others
CC(=O)Nc1ccc(Nc2ccc([N+](=O)[O-])cn2)cc1	5	-6	-5	i	-18	5	2	-12
COc1cccc(-c2nc(CS(=O)(=O)CC(=O)Nc3cccc(C(C)=O)c3)c(C)o2)c1	-8	x	-8	i	-9	-1	3	0
CCCN1CCN(CCCNC(=O)c2cc3c(=O)n(C)c4ccccc4c3n2C)CC1	9	-4	-6	i	16	7	5	-9
CCC1(C)Cc2ccccc2-c2nc3n(c(=O)c21)CCCCC3 (stereo not drawn)	-1	20	3	i	x	13	-3	-12
O=C(N/N=C/c1ccco1)c1cccc(N2CCCC2=O)c1	-2	-11	91*	i	-14	1	1	x	eIF4H inh retest=94*;PABP polyA inh retest=24
CN1CCN(C(=O)c2ccc(Cl)cc2)CC1	16	-14	28	i	x	3	-2	-1
CCOc1cccc(C(=O)NC(=S)Nc2cccc(NC(=O)c3ccccc3Cl)c2)c1	-4	x	-20	i	13	8	-3	5
COc1cc(OC)cc(C(=O)Nc2ccc(NC(=O)c3ccco3)c(Cl)c2)c1	-2	-16	-2	i	13	7	-3	-13
CC(OCC(O)CNCC1COc2ccccc2O1)c1ccc(Cl)cc1 (stereo not drawn)	-8	x	-1	i	8	-1	4	-14
COCC(C)n1c(C)cc(C(=O)COC(=O)c2cnc(Cl)c(Cl)c2)c1C (stereo not drawn)	x	-13	x	x	2	-8	-3	-10
COc1cc(OC)c(NC(=O)Cc2cccs2)cc1Cl	-1	-7	-1	i	-8	4	1	-9
